Source: PubChem (National Center for Advancing Translational Sciences (NCATS))
AmpC inh no det – inhibitors of E. coli AmpC beta-lactamase without detergent; P00811; AmpC nitrocefin hydrolysis, absorbance 480 nm, no detergent; potencies from a single point are estimates; Potency, µM (top dose mostly 28.7 µM), inactives show at the highest dose activity change, negative = inhibition; 71,000 tested, 1.8% active; AID 585; active = falling curve, for most hits resting on a single point; inconclusive = weak or doubtful change; inactive = flat or rising curve; note: % of control where 0% means no effect; about half of the hits show no inhibition at the top dose; a quarter of the inactives give rising signals
Target sequence (P00811 whole entry, looked up): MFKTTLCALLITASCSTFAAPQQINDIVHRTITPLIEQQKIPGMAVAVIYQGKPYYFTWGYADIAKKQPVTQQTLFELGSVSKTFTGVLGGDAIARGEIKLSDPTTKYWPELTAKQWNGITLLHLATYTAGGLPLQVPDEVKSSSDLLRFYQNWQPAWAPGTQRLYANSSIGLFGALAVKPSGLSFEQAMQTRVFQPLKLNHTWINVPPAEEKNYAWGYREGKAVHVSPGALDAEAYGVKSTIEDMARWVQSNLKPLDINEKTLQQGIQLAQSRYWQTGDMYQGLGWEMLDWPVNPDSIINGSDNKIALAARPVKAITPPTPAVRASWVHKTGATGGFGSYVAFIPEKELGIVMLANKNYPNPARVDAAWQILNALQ
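AmpC in 20 mM phosphate buffer pH 7.0 was preincubated 15 min at room temperature with compounds. Nitrocefin (800 uM stock) was then added and hydrolysis followed at 480 nm every 20 s for 4 min.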
Active calls of the source: *; u = inconclusive; & = joins results of further samples; [ ] = dose if it differs, or a comment. Potency is the fitted concentration of half-maximal effect.

SMILES | AmpC inh no det
COc1ccccc1-c1nnc(SCC(=O)N2CC(C)CC(C)C2)o1 (stereo not drawn) | 53%
COc1ccc(C(=O)CN2C(=O)C(C)(C)Oc3ccc(C(=O)N4CCCCCC4)cc32)cc1 | 94%
CNC(=O)c1cc2c(cn1)[nH]c1ccccc12 | 2%&-9%
COc1ccc(NC(=O)Nc2nnc(N3CCC(C)CC3)s2)cc1OC | 4µM*[single pt active]
COc1cccc(/C=N/n2c(-c3ccco3)nc3ccccc3c2=O)c1 | 63%
CN(CC(=O)Nc1cccnc1)S(=O)(=O)c1cc(Cl)ccc1Cl | 12%
CCOP(=S)(OCC)Oc1cc(C)nc(C(C)C)n1 | 1%
CC(=O)N(Cc1cccnc1)Cc1cc2ccc(C)cc2[nH]c1=O | -8%
Cc1ccc2cc(CN(CCO)Cc3nnnn3Cc3ccc(F)cc3)c(=O)[nH]c2c1 | 67%
CN(C)c1nc(NS(=O)(=O)c2ccc(Cl)cc2)nc(N(C)C)n1 | 19%
C[C@@]12CCC(=O)C=C1CC[C@H]1[C@@H]2[C@@H](O)C[C@]2(C)[C@@H]1CC[C@@]2(O)C(=O)CO | 0%[5.75 µM]
c1cncc(Nc2nc(-c3cccnc3)cs2)c1 | -12%
O=S(=O)(c1ccc(NCC2CCCCC2)nc1)N1CCOCC1 | 30%
CCOC(=O)Cc1csc(NC(=O)c2c(O)c3ccccc3n(C)c2=O)n1 | 125%
O=C(Nc1ccccc1)N1CC2(CCN(C(=O)c3cnccn3)CC2)C1 | -7%

Rewritten field by field: entries from further up
structure: CN(C)c1nc(NS(=O)(=O)c2ccc(Cl)cc2)nc(N(C)C)n1
- AmpC inh no det = 19%
structure: C[C@@]12CCC(=O)C=C1CC[C@H]1[C@@H]2[C@@H](O)C[C@]2(C)[C@@H]1CC[C@@]2(O)C(=O)CO
- AmpC inh no det = 0%[5.75 µM]

(next part)
SMILES | AmpC inh no det
CC(=O)C1=C(C)N=c2s/c(=C/c3ccc4c(c3)OCO4)c(=O)n2C1c1ccc(N(C)C)cc1 (stereo not drawn) | 10%
Cc1ccc(C2CC(c3ccccc3)n3ncnc3N2)cc1 (stereo not drawn) | 55%
CC(OC(=O)c1cc(=O)[nH]c2ccccc12)c1ccccc1 (stereo not drawn) | 16%
CCOC(=O)CCNC(=O)Nc1ccc2nc(C)n(Cc3cccc(Cl)c3)c(=O)c2c1 | 90%
CC1CCc2c(nc3ncnn3c2N2CCN(c3ccccc3)CC2)C1 (stereo not drawn) | 64%
Cc1cccc(-n2cnc3cc(C(=O)N4CCCCC4)ccc32)c1 | 33%
CCc1cc(=O)oc2cc(C)cc(OC(=O)c3ccco3)c12 | -1%
Cc1ccc(Cl)cc1NC(=O)CC(O)(C(F)(F)F)C(F)(F)F | -4%
Cn1c(C(=O)O)c(CC(=O)Nc2ccc3c(c2)OCCO3)c2ccccc21 | -11%
COc1ccc(CNC(=O)C2CCCN2C(=O)NC2CCCCC2)cc1 (stereo not drawn) | 11%
COC(=O)COc1ccc(S(=O)(=O)NCCC2=CCCCC2)cc1C | 13%
Cc1cccc2cc(CN(CC3CCCO3)C(=O)c3ccco3)c(=O)[nH]c12 (stereo not drawn) | 28%
COc1ccc(N=C(C)C2=C(O)COC2=O)cc1 | -3%
COC(=O)CCC(=O)Nc1ccc(Cl)c(Cl)c1 | -4%
Clc1ccccc1C(Nc1ncccn1)Nc1ncccn1 | 7%[5.75 µM]
CCOC(=O)NC1(NC2CCCCC2)Oc2ccccc2O1 | 30%
CC/C(=C1/C(=O)CC(C)(C)C(C(=O)OC)C1=O)N1CCCC1 (stereo not drawn) | 8%
Cc1ccc(C(=O)Nc2ccc3c(c2)OCO3)cc1S(=O)(=O)N1CCCCC1 | -12%
CCC(=NCCCN1CCOCC1)c1c(O)n(Cc2ccccc2)c(=O)[nH]c1=O | 29%
CC1CN(S(=O)(=O)c2cccc(-c3cn4ccccc4n3)c2)CC(C)O1 (stereo not drawn) | 58%
COc1ccc(C2CC(=O)C(C=NCCCN3CCOCC3)=C(O)C2)cc1 (stereo not drawn) | 27%
Clc1ccccc1Cl | -15%
COc1cccc(N2C(=O)CC(c3c[nH]c4ccccc34)C2=O)c1 (stereo not drawn) | -10%
CCN(CC)S(=O)(=O)c1ccc(/C(O)=C(\C#N)c2nc3ccccc3n2C)cc1 | 44%
Cc1cc(C(C)(C)C)cc(S(=O)(=O)NCCO)c1C | 24%
COC(=O)[C@@]1(Cc2ccccc2)[C@H]2c3cc(C(=O)N4CCCC4)n(Cc4c(CO)[nH]cc(C)c4=O)c3C[C@H]2CN1C(=O)c1ccccc1 | 161%
O=C(Nn1cnnc1)c1cc2c(s1)CCCCC2 | -6%
COC(=O)c1ccc(C(=O)OC)c(NC(=O)COC(=O)C23CC4CC(CC(O)(C4)C2)C3)c1 | 119%
CNc1ncnc2ccc(-c3cccc(NS(C)(=O)=O)c3)cc12 | 5%
O=C(O)/C=C\c1ccc(O)c(O)c1 | 6%
COc1cccc(C2(O)CCN(C(=O)c3cccs3)CC2)c1 | 13%
Cc1ccc2c(c1)[nH]c1c(N3CCN(Cc4ccc5c(c4)OCO5)CC3)ncnc12 | 11%
Cc1cccc(Cn2c(CN3CCN(Cc4ccccc4)CC3)nc3c2c(=O)[nH]c(=O)n3C)c1 | 51%
COc1cc(NC(=O)C2CCCCC2)c(OC)cc1NC(=O)c1ccco1 | 71%
Cc1cccc2cc(COC(=O)C3CCCCC3)c(=O)[nH]c12 | 4%
Cn1cccc1Cc1nnc(SCC(=O)N2CCOCC2)n1CCc1ccccc1 | 114%
CCOc1ccc(OCC)c(S(=O)(=O)N2CCCCC2C)c1 (stereo not drawn) | 54%
COC(=O)c1ccc(Nc2cc(C)nc3ncnn23)cc1 | -2%
O=C(O)c1c(F)c(F)c(F)c(F)c1-c1ccc(Cl)cc1 | -18%
O=C(OCC(=O)N1CCCc2ccccc21)C1CCN(S(=O)(=O)c2cccs2)CC1 | 36%
COc1ccc(C(=O)N2CCCN(C)CC2)cc1S(=O)(=O)N1CCCc2ccccc21 | 39%
O=S(=O)(c1ccc(N2CC=C(c3ccccc3)CC2)nc1)N1CCCC1 | 3%
Cn1c(Cn2c(=O)sc3ccccc32)nnc1SCC(=O)NCc1ccc2c(c1)OCO2 | -13%
c1ccc(C2COC(c3cccs3)=N2)cc1 (stereo not drawn) | 0%
O=C(c1cnc(N2CCN(c3ncccn3)CC2)c2ccccc12)N1CCN(c2ccccn2)CC1 | 117%
COc1ccc(OC)c(-c2cc(C(=O)Nc3c(C)n(C)n(-c4ccccc4)c3=O)no2)c1 | 36%
O=c1[nH]c(SCc2cccc([N+](=O)[O-])c2)nc2nc[nH]c12 | 5%[5.75 µM]
Cc1nn2c(nc1=O)SCC(c1ccccc1)=N2 | -8%
CCOC(=O)c1[nH]nc(-c2c(O)cc(C)cc2O)c1-c1csc(C)n1 | -8%
CC(=O)Nc1c(OC(C)=O)ccc2c(C)cc(=O)oc12 | -3%
O=C(NCc1ccco1)c1ccccc1Nc1ccc(F)cc1 | -8%
O=C(c1ccncc1)N1CCC2(CCCN(c3ccncc3)C2)CC1 | 0%
CN(C)c1ccc(/C=c2\sc3n(c2=O)CCCN=3)cc1 | 25%
O=C(NCc1ccc(F)cc1)c1cc(S(=O)(=O)N2CCOCC2)ccc1F | 12%
COCCn1c(=O)c(-c2ccc(F)cc2)nc2cnc(Oc3cccc(Cl)c3)nc21 | 9%
COc1ccc(-n2c(=O)c(-c3cn(C)c4ccccc34)nc3cncnc32)cc1 | 15%
CCOc1ccccc1-c1nc(-c2ccc(NC(=O)Cc3ccc(OC)cc3)cc2)no1 | -19%
CCCc1cc(-c2n[nH]c(C)c2-c2ccc(C(=O)OCC)o2)c(O)cc1O | -14%
COc1ccccc1CNc1ncncc1-c1ccccc1C | 20%
CS(=O)(=O)N1CCC(C(=O)NCCC2=CCCCC2)CC1 | 21%

Part of the list above in order of formula weight, rising.
SMILES | AmpC inh no det
CC(=O)Nc1c(OC(C)=O)ccc2c(C)cc(=O)oc12 | -3%
O=C(c1ccncc1)N1CCC2(CCCN(c3ccncc3)C2)CC1 | 0%
CCCc1cc(-c2n[nH]c(C)c2-c2ccc(C(=O)OCC)o2)c(O)cc1O | -14%

(cont.)
SMILES | AmpC inh no det
Cc1ccc2[nH]c(=O)c(CN(CCN3CCOCC3)C(=O)Nc3ccccc3F)cc2c1 | 115%
Cn1c(=O)c2c(nc(CN3CCN(C(=O)c4ccco4)CC3)n2Cc2cccc(Cl)c2)n(C)c1=O | 122%
CN(C)Cc1c(C#N)c2ccccc2n1C | -4%
COc1ccc(CCC(=O)NC2=NCCS2)cc1OC | -15%
COc1ccc2c(c1)CCCN2C(N)=O | -5%
CC(=O)C1=C(C)Nc2ncnn2C1c1ccccc1OCc1ccccc1 (stereo not drawn) | 10%
COc1ccccc1S(=O)(=O)Cc1ccc(C(=O)NCCN2CCCCCC2)o1 | 4µM*[single pt active]
c1ccc(-n2cnnc2SCc2cn3ccsc3n2)cc1 | -14%
CCOC(=O)c1cnn(-c2ncnc3c2cnn3Cc2ccccc2)c1N | -4%
O=C(CSc1nnc(-c2ccco2)n1CC1CCCO1)NC1CCCC1 (stereo not drawn) | -2%
CCOc1cc(C(C#N)N2CCOCC2)ccc1OC (stereo not drawn) | 20%
O/N=C/CCn1c(=S)sc2ccccc21 | -13%
Cc1c(N=C2Nc3cccc4cccc2c34)c(=O)n(-c2ccccc2)n1C | 37%
CCN(Cc1cc(Cl)cc(C)c1O)Cc1c(O)ccc2ccccc12 | -6%[5.75 µM]
CCN1CCN(Cc2ccc(NC(=O)Nc3ccccc3OC)cc2)CC1 | 4µM*[single pt active]

Gathered by group, the compounds so far with a COOH group.
SMILES | AmpC inh no det
Cn1c(C(=O)O)c(CC(=O)Nc2ccc3c(c2)OCCO3)c2ccccc21 | -11%
O=C(O)/C=C\c1ccc(O)c(O)c1 | 6%
O=C(O)c1c(F)c(F)c(F)c(F)c1-c1ccc(Cl)cc1 | -18%

Continued:
SMILES | AmpC inh no det
O=S(=O)(c1cccc(-c2cn3cc(Cl)ccc3n2)c1)N1CCOCC1 | 43%
CCN(CC)C(=O)Cn1c(=O)n(-c2ccccc2)c(=O)n1CC(=O)N(CC)CC | -1%
O=C(NC1=NCCS1)c1nc(-c2ccccc2)n(-c2ccccc2)n1 | 2%
CCOC(=O)CC(=O)Nc1nnc(CC(C)C)s1 | -4%
O=C1NC(c2ccccc2)C(C(=O)c2cccs2)C(O)(C(F)(F)F)N1 (stereo not drawn) | 0%
O=C(CSc1nnc(-c2ccc(Cl)cc2)o1)N1CCN(c2ccccc2)CC1 | 10µM*[single pt active]
COc1ccc(CNC(=O)C2CCCN(c3nc4ccccc4o3)C2)c(OC)c1 (stereo not drawn) | 98%
CN1CCN(Cc2nc3c(c(=O)n(C)c(=O)n3C)n2CCc2ccccc2)CC1 | -4%
COc1cccc(C(=O)N2CCN(Cc3cccc(F)c3)CC2)c1 | 44%
CCCOc1nc2c(c(=O)n(C)c(=O)n2C)n1Cc1cccc2ccccc12 | 107%
CCOC(=O)CN(C)Cc1c[nH]c2ccccc12 | -8%
O=C(Nc1ccc(S(=O)(=O)N2CCCCCC2)cc1)c1ccco1 | -5%
O=C(NC1CCCc2ccccc21)C1CCN(c2c3c(nc4ncnn24)CCC3)CC1 (stereo not drawn) | 110%
COc1cc(OC)c(C2CC(=O)N3CN(C)CSC3=C2C#N)cc1OC (stereo not drawn) | 4µM*[single pt active]
O=C(O)[C@H](Cc1ccc(O)c([N+](=O)[O-])c1)N1C(=O)c2ccccc2C1=O | 0%[5.75 µM]
COC(=O)c1cccc(S(=O)(=O)N2CCC(NC(=O)Nc3cccc(F)c3)CC2)c1 | 0%
CCOC(=O)Cc1csc(NC(=O)Cc2cccs2)n1 | u
Cc1ccc(S(=O)(=O)NCC(=O)NC2CCCC2)cc1 | 15%
CCCC(=O)Nc1cc(-c2nnc(OC)c3ccccc23)ccc1N1CCOCC1 | 78%
CCOc1ccc(-c2noc(CCC(N)=O)n2)cc1OCC | 10%
CN(Cc1ccco1)c1ccnc(-c2cccnc2)n1 | 16%
COc1ccc(OC)c2[nH]c(=O)c(CCNC(=O)CC(C)C)cc12 | 4%
COc1cc(-c2nnc(SCc3ccccc3Cl)o2)cc(OC)c1OC | 86%
Cc1cc(NC(NC(=O)c2ccco2)(C(F)(F)F)C(F)(F)F)no1 | 4%
Cc1nc(C)n(CC(O)COc2ccc3c(c2)CCC3)n1 (stereo not drawn) | 29%
Cc1nc2ccc(NC(=O)N3CCOCC3)cc2s1 | 1%
CC(C)(Oc1ccc(CCNC(=O)c2ccc(Cl)cc2)cc1)C(=O)O | -5%[12.8 µM]
COC(=O)C(C)N(C#N)c1nc(C)nc(C)n1 (stereo not drawn) | 22%
CCOC(=O)CSCc1nc(-c2ccc(Cl)cc2)oc1C | 4µM*[single pt active]
CCOCCCNC(=O)c1cn(CC(C)C)c(=O)c2cc(OC)c(OC)cc12 | 47%

Entries shown so far that contain a nitro group on carbon (two):
SMILES | AmpC inh no det
O=c1[nH]c(SCc2cccc([N+](=O)[O-])c2)nc2nc[nH]c12 | 5%[5.75 µM]
O=C(O)[C@H](Cc1ccc(O)c([N+](=O)[O-])c1)N1C(=O)c2ccccc2C1=O | 0%[5.75 µM]

(cont.)
SMILES | AmpC inh no det
CS(=O)(=O)Nc1cccc(-c2ccc3ncnc(Nc4ccc(F)cc4)c3c2)c1 | -5%
Cc1cc(N)c2ccccc2[n+]1CCCCCCCCCCCCCC[n+]1c(C)cc(N)c2ccccc21 | 44%
CC(C)(C)c1nc(CN2CCCCC2)cc(CN2CCCCC2)c1O | 4%
COC(=O)c1ccc(C(=O)OC)c(NC2=NS(=O)(=O)c3ccccc32)c1 | 6%
CC1CCN(C(c2ccc(N(C)C)cc2)c2nnnn2Cc2ccc(F)cc2)CC1 (stereo not drawn) | 42%
CC(C)OCCCNC(=O)Cn1ncc2c(=O)oc3ccccc3c21 | 1%
O=S(=O)(c1cccc2nsnc12)N1CCc2ccccc21 | -1%

The list is partial, so the mix of outcomes need not match the whole.
